Autofluor counter: compound fluorescence in toxin protease inhibitor counterscreen; AID 624483; compound autofluorescence counterscreen, microsphere flow cytometry; active compounds read high; actives 3.1% (n = 360,000); fluorescence intensity (no concentration beside the values);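 active means at least 3 SD above the mean of all compounds, about 16000 in these data; inconclusive means too few beads counted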;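 further: 100 nL of 1 mM stock went into each well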
BJeLR lethal: BJeLR cell viability loss; inhibition, % (no concentration beside the values); BJeLR (HRASV12) viability, CellTiter-Glo ATP luminescence, 48 h; reference of the scale not given here; actives 0.17% (n = 300,000); AID 1554;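 active means replicate mean above 50%; inconclusive means above 50% but judged a plate artefact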;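 further: 50 nL library stock added to about 25 µL; numbers are from one replicate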
Mtb hypoxia inh: inhibitors of hypoxia-regulated fluorescent reporter in Mycobacterium tuberculosis; fluorescence inhibition, % (no concentration beside the values); AID 1159583; actives 0.1% (n = 300,000); M. tuberculosis hypoxia-regulated fluorescent reporter, fluorescence;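 active means 35 to 45% if threefold the growth effect, above 45% if 1.5-fold the growth effect; inactive means the rest, general growth blockers included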;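 further: wells of about 50 µL received 100 nL stock; 0% = vehicle wells and 100% = reference inhibitor wells; whole bacteria with a GFP reporter of the hypoxia response; strong numbers were not always called active; many hits fall short of the cut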
RN4220 kill: kills Staphylococcus aureus RN4220. S. aureus RN4220 growth, OD600, 16 h. inhibition, % (test concentration not listed). actives 0.33% (n = 330,000). AID 1259311;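 active means z-score of -3 or lower and OD600 up to 0.18 on both plates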;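 further: plate controls were untreated cells for no effect and reference antibiotic for full effect; stock transfer was 100 nL into about 80 µL; one replicate is shown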
PrP UTR inh: inhibition of PrP 5' UTR reporter expression. cell-based PrP 5' UTR mRNA reporter, plate reader. inhibition, % (no concentration beside the values). actives 0.35% (n = 340,000);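 active means every replicate at 50% or more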;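 further: 0 = median of the neutral control wells; tested in H4 reporter cells; numbers are from one replicate; inactives centre near -14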
Sa ugtP lethal: kills S. aureus RN4220 lacking UgtP | S. aureus RN4220 ugtP deletion, OD600 growth, 16 h; some inactives read as strong as hits | growth inhibition, % (test concentration not listed) | actives 0.54% (n = 330,000) | AID 1259309;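 active means z-score under -3 and OD600 up to 0.15 on both plates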;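 further: plate controls were untreated wells for no effect and antibiotic for full effect; wells of about 80 µL received 100 nL stock; the first replicate is given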
Mtb hypoxia inh growth: recorded beside Mtb hypoxia inh, whose call it bears; growth inhibition, %; measured here: M. tuberculosis growth (absorbance);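 0% = vehicle and 100% = reference antibiotic; read after six days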
An asterisk follows results filed as active; ? = inconclusive; · = not tested or not shown. Not a hit list; 4% or so of the library scored in one or more.

SMILES	Autofluor counter	BJeLR lethal	Mtb hypoxia inh	Mtb hypoxia inh growth	RN4220 kill	PrP UTR inh	Sa ugtP lethal
Cc1ccc(Oc2nc(-c3cccnc3)nc3ccccc23)c([N+](=O)[O-])n1	4640	·	7	2	-1.6	1	-2
O=C(O)c1ccc(N2C(=O)CC(SC(=Nc3ccccc3)Nc3ccccc3)C2=O)cc1 (stereo not drawn)	2102	-1	·	·	·	-15	·
COc1ccc(C(=O)N(CN2CCCC2=O)c2ccccc2OC)cc1OC	23117*	-6	3	7	0.1	-21	-6
Cc1[nH]c2ccc(-c3n[nH]c(=S)n3-c3ccccc3)cc2c1C	2381	-16	1	4	-4.1	-7	6
COc1ccc(C(C#N)N2N=C(C)CC2c2ccccc2)cc1 (stereo not drawn)	3482	-8	4	1	1.9	-26	14
COC(=O)C1=C(c2cccc(OC)c2OC)CC2CCC1N2C(=O)NCc1ccccc1 (stereo not drawn)	·	·	8	10	3.3	·	-8
C=CCSc1nnc(NC(=O)CN2C(=O)NC3(CCCC3)C2=O)s1	4600	2	6	-2	6.7	4	12
CCN(CC)c1ccc(NC(=O)COC(=O)CSc2ccc(Br)cc2C)cc1	1924	1	5	1	5.2	0	4
Cc1cc(NC(=O)CCSc2nc(-c3ccco3)cc(C(F)(F)F)n2)no1	3281	-4	·	·	·	-11	·
Fc1ccccc1Cc1noc(CN2CCCC(CN3CCOCC3)C2)n1 (stereo not drawn)	4188	-1	18	1	3.1	-3	-66

Some of the entries so far, with values under each structure:
Results follow in this order: Autofluor counter	BJeLR lethal	Mtb hypoxia inh	Mtb hypoxia inh growth	RN4220 kill	PrP UTR inh	Sa ugtP lethal
O=C(O)c1ccc(N2C(=O)CC(SC(=Nc3ccccc3)Nc3ccccc3)C2=O)cc1 (stereo not drawn)
 : 2102	-1	·	·	·	-15	·
COc1ccc(C(=O)N(CN2CCCC2=O)c2ccccc2OC)cc1OC
 : 23117*	-6	3	7	0.1	-21	-6
Cc1[nH]c2ccc(-c3n[nH]c(=S)n3-c3ccccc3)cc2c1C
 : 2381	-16	1	4	-4.1	-7	6
COc1ccc(C(C#N)N2N=C(C)CC2c2ccccc2)cc1 (stereo not drawn)
 : 3482	-8	4	1	1.9	-26	14

The list goes on.
SMILES	Autofluor counter	BJeLR lethal	Mtb hypoxia inh	Mtb hypoxia inh growth	RN4220 kill	PrP UTR inh	Sa ugtP lethal
C=CCNC(=O)c1cnc(-c2ccccc2)nc1-c1ccccc1	3733	-2	17	11	4.1	-13	9
CCC1(C)CC(c2csc(N)n2)CCO1 (stereo not drawn)	15853	3	5	2	0.4	-15	3
C#CCNC(=O)c1cccn1-c1ncc(C(F)(F)F)cc1Cl	4382	-6	0	-2	16	-20	2
COc1ccc(-c2cc(C(=O)N3CC4(C)CC3CC(C)(C)C4)no2)cc1OC (stereo not drawn)	10390	20	-7	-1	4.3	-17	-7
CCCc1n[nH]c(=S)n1Cc1ccco1	3473	-2	10	1	2.3	-23	-1
CC(=O)Nc1ccc(/C(C)=N/NC(=O)C2CC2c2ccccc2)cc1 (stereo not drawn)	10248	7	·	·	·	-17	·
CCN(CC)C1CCN(C(=O)CCn2nnnc2CN2CCOCC2)C1 (stereo not drawn)	6048	-5	6	5	1.3	-21	-1
CN(Cc1c(F)cccc1Cl)C(=O)c1ccc(NS(=O)(=O)c2ccc3[nH]c(=O)[nH]c3c2)cc1	4432	-5	-3	-4	4.2	-27	12
O=C(COC(=O)c1ccc(OC(F)F)cc1)Nc1cccc(S(=O)(=O)NC2=NCCC2)c1	3765	·	-5	-3	2.1	-5	-3
O=C(Nc1ccc(Cl)c(S(=O)(=O)N2CCOCC2)c1)C1CCC1	4004	·	0	1	6.0	-20	0
CCCCn1nc2cc(C(=O)NCc3ccc4c(c3)OCO4)ccc2c1OCC	5488	1	2	1	4.1	12	-1
CCN(CC)CCNC(=O)C1c2ccccc2Oc2ccccc21	4546	8	3	-3	2.7	-13	-7
O=c1c(O)cccc2cc(O)c(O)c(O)c12	3221	-3	10	2	27	8	-1
CCN1CCN(C(=S)c2ccc(OCC(=O)Nc3ccc(OC)cc3)cc2)CC1	3319	5	12	14	-0.3	-6	11
O=C(CSc1nc(-c2ccccc2)cs1)Nc1ccccc1[N+](=O)[O-]	2404	4	5	8	1.3	-13	0
CCOC(=O)C(NC(=O)Nc1ccc(F)cc1F)(Oc1ccccc1)C(F)(F)F (stereo not drawn)	2158	1	·	·	·	-13	·
Cn1c(=O)[nH]c(=O)c2c1nc(NC1CCCCC1)n2CCO	4521	-5	8	5	0.6	-7	8
CCc1ccc(C(=O)NCc2cccs2)s1	11231	-2	·	·	14	-50	8
CCNC(=O)NCCc1c[nH]c2ccc(Cl)cc12	?	2	1	4	4.3	-16	-7
COc1ccccc1NC(=O)COC(=O)C1CC(=O)N(c2ccc3c(c2)OCCO3)C1 (stereo not drawn)	5558	·	3	12	2.6	4	2
N#Cc1c(N)nc2c3c(sc(=N)c2c1N)NC(=O)CC3c1ccccc1 (stereo not drawn)	4463	-4	-70	-3	-3.7	-9	0
COc1ccc(Cc2nnc(Nc3ccccc3OC)[nH]c2=O)cc1	4515	-7	-2	10	-0.3	-3	-2
O=C(CSc1n[nH]c(=O)n1C1CC1)NCc1ccccc1Cl	4370	-2	9	-2	-0.2	-16	-2
O=C(O)c1ccc(NS(=O)(=O)c2ccc3c(c2)OCCCO3)cc1	4244	-1	-1	-15	-3.7	-22	-6
CCC1CN(C(=O)N2CCC(C(=O)NCc3ccc(F)cc3)CC2)c2ccccc2O1 (stereo not drawn)	5087	-5	8	-1	-2.3	-70	8
COc1cc(NC(=O)c2ccc(N3CC4CC(C3)c3cccc(=O)n3C4)c(NC(=O)c3ccncc3)c2)cc(OC)c1OC (stereo not drawn)	6122	10	5	2	4.1	-10	7
COc1cc(/C=N/NC(=O)CCn2nc(C)cc2C)ccc1O	5256	9	·	·	·	-3	·
CCc1nnc(NC(=O)CSc2nnc(-c3ccoc3C)n2-c2ccc(C)cc2)s1	·	-7	12	3	0.4	-6	1
COc1ccc(C2(c3ccc(OC)cc3)NC(=O)N(Cn3nnc4ccccc4c3=O)C2=O)cc1	2248	1	1	-8	3.2	0	1
N#C/C(=C\c1ccccc1)C(=O)Nc1cc(S(=O)(=O)N2CCOCC2)ccc1N1CCCC1	2377	-5	3	4	-0.5	-2	9
CCn1c(/C=C/c2ccc([N+](=O)[O-])o2)nc2ccccc2c1=O	8317	7	·	·	11	-13	12
Cc1ccc(-n2c(N)c(C(=O)NCc3cccnc3)sc2=S)cc1	3936	12	·	·	-1.8	-6	10
CCOC(=O)C1CCC(CNCc2ccccc2C)CC1 (stereo not drawn)	4955	1	14	4	15	-4	5
CCOc1ccc(CCNC(=O)C2CCN(S(=O)(=O)N3CCOCC3)CC2)cc1OCC	2976	2	2	-3	1.2	-9	7
Cc1cc(C)cc(N2C(=O)NC(=O)C(=Cc3cccn3-c3ccc(Cl)cc3)C2=O)c1	·	·	3	6	2.7	·	-8
O=C(COc1ccc(F)cc1)N(c1ccccn1)C1CCCCC1	7306	-2	10	6	6.5	2	0
Cc1ccc(Cl)cc1NC(=O)Cn1c(C)csc1=O	3511	·	-1	5	7.6	-20	5
COc1ccc(CCC(=O)Nc2nccs2)cc1OC	3625	-3	-9	-16	0.1	-21	8
COC(=O)N/N=C(\C)c1ccc(Br)cc1	4714	5	·	·	·	-17	·
C=C(C)CNC(=S)NNC(=O)CCn1c2ccccc2c2ccccc21	1984	-6	10	-2	3.5	-3	-11
Cn1c(SCc2nc3ccccc3s2)nnc1-c1cccs1	2471	-3	1	2	24	-20	23
Oc1ccc(-c2csc(-c3c[nH]c4ccccc34)n2)c(O)c1	1905	9	0	-2	-3.2	-79	-37
COCCNC(=O)c1ccc(CSCc2cccc(Cl)c2)o1	3663	-5	17	8	1.0	-18	2
CC(C)(C)c1nc(SCC(=O)Nc2ccc(N3CCOCC3)cc2)c2ccccc2n1	9344	-4	0	7	5.2	-23	7
Cc1cnc(CN(C)Cc2nc(Cc3cccc(C(F)(F)F)c3)no2)[nH]1	4660	-2	1	8	4.0	-11	6
CCC(C)NC(=O)CN1C(=O)CC(C)(C)S(=O)(=O)c2ccccc21 (stereo not drawn)	6370	-14	·	·	4.2	-14	8
CCc1cccc(NC(=O)C2CCN(S(=O)(=O)c3ccc4c(c3)CC(C)N4C(C)=O)CC2)c1 (stereo not drawn)	4452	9	-7	-2	0.8	-11	-3
Cc1cc(C)c(NC2=NCCCS2)c(C)c1	3001	1	·	·	2.3	-24	1
Cc1cc(C)cc(NC(=O)c2cccc(NC(=O)C3C4CC5OC(=O)C3C5C4)c2)c1 (stereo not drawn)	8224	-7	-1	3	4.2	-22	8
CC#C[C@]1(O)CC[C@H]2[C@@H]3CCC4=CC(=O)CCC4=C3[C@@H](c3ccc(N(C)C)cc3)C[C@@]21C	5486	-3	·	·	·	-17	·
The results go on.
SMILES	Autofluor counter	BJeLR lethal	Mtb hypoxia inh	Mtb hypoxia inh growth	RN4220 kill	PrP UTR inh	Sa ugtP lethal
CC(C)(C)N(Cc1ccccc1)C(=O)CCc1ccccc1	1958	-6	20	10	4.5	2	2
Cc1ccc(S(=O)(=O)Nc2cc(S(=O)(=O)N3CCCCC3)ccc2N2CCOCC2)cc1	4323	-8	-1	0	5.8	-41	1
CSCC(C)N1CCC(n2nccc2NC(=O)CCc2ccccc2)CC1 (stereo not drawn)	6045	-1	6	16	1.6	-2	1
COc1ccc(Cl)cc1S(=O)(=O)N(C)CC(=O)NCc1ccc2c(c1)OCO2	3653	-9	6	8	4.1	-18	10
Cc1ccc(S(=O)(=O)N2CCOCC2)cc1NC(=O)c1cc2ccccc2oc1=O	2766	·	15	3	5.4	-3	-1
Cc1ccc(N2CCN(C(=O)c3nn(C)c4c3CS(=O)(=O)c3ccccc3-4)CC2C)cc1 (stereo not drawn)	5821	2	4	1	3.2	-13	2
COc1ccccc1-n1c(SCC(=O)Nc2ccccc2F)nc2[nH]ncc2c1=O	16242*	-9	4	-4	2.4	-14	6
O=C(/C=C/c1ccco1)N1CCN(S(=O)(=O)c2cccs2)CC1	4399	6	12	10	4.0	-21	13
CCOC(=O)c1c(NC(=S)NC)sc2c1CCCC2	3566	-3	23	24	13	-19	1
CN1C(C)(C)CC(NC(=O)CCC(=O)NC2CC(C)(C)N(C)C(C)(C)C2)CC1(C)C	2123	-2	·	·	-2.0	-10	-1
Cc1ccc(C(=O)N/C(=C/c2ccc(-c3cc(C(F)(F)F)ccc3Cl)o2)C(=O)NCc2cccnc2)cc1	8011	-2	-2	-1	8.1	-32	6
C/C(=N\NC(=O)CNC(=O)c1ccc(F)cc1)c1ccco1	4388	6	·	·	·	-54	·
CSc1ccc(CCNC(=O)c2cccc3c2C(=O)N(C2CCCCC2)C3)cc1	6321	-5	8	1	2.0	-19	-16
Cc1cc2nc(-c3ccc(SCC(=O)Nc4ccc(S(=O)(=O)N5CCCC5)cc4)nc3)[nH]c2cc1C	9929	-6	4	-3	31	-62	-7
COc1ccc(O)c(/C=N/Nc2nc(Nc3ccccc3)nc(-n3nc(C)cc3C)n2)c1	2157	14	·	·	·	18	·
O=C(CNC(=O)c1cccc(Cl)c1)Nc1ccc(F)c(F)c1F	2859	-11	3	-3	-0.6	-16	-1
O=C(CNC(=O)c1cccs1)OCC(=O)c1ccc(Br)cc1	3461	-6	2	-2	4.9	-22	5
O=C(c1ccc2c(=O)n3c(nc2c1)CCCCC3)N1CCN(c2ccccc2F)CC1	4192	1	-3	5	2.8	-15	3
ClCCn1cnc2c(SCc3ccccc3)ncnc21	3757	·	25	14	-1.3	-36	8
N#C/C(=C/c1ccc(-c2ccc(C(=O)O)c(Cl)c2)o1)C(=O)NCC1CCCO1 (stereo not drawn)	2002	·	5	1	2.4	-13	3
O=C1NC(=O)C(CCOc2ccccc2)(CCc2ccccc2)C(=O)N1	3551	·	10	6	4.9	-22	12
CCCN(CC(=O)Nc1ccccc1C)C(=O)c1cccc(-n2cnnn2)c1	4695	-3	5	1	1.0	8	0
O=[N+]([O-])c1ccc(NCCCN2CCOCC2)c2ncccc12	4379	3	7	8	5.1	-29	9
COCCNC(=O)c1cc(-c2ccccc2)n(Cc2cc(C)no2)n1	3689	·	-3	-9	3.3	-5	-2
